Bioassay records from PubChem.
Ba CapD inh: CapD enzyme inhibition | purified CapD enzyme, fluorescence intensity read-out; hits give low values; some hits fall short of the stated cut | z-score (no concentration beside the values) | 140,000 compounds, 0.23% hits | AID 492967;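 active = z-score under -4 in either of two replicates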;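 note: stock transfer was 100 nL into about 40 µL; score is relative to mean and spread of the plate; one replicate is shown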
AID504770: E. coli YBA685 growth inhibition, screen for V. cholerae RctB inhibitors. E. coli YBA685 rctB-dependent plasmid, OD600 growth, 3 h; hits give low values. z-score (no concentration beside the values). 130,000 compounds, 0.27% hits;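 active = z-score under -2 on both plates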;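 note: wells of about 30 µL received 100 nL stock; score is relative to mean and SD of the test wells; the first replicate is given; strong numbers were not always called active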
Starred values were filed as active, the others as inactive; x = no result given. Only part of the results is shown; the hit share may differ from the screen's.

structure	Ba CapD inh	AID504770
CC(Oc1cccc(Cl)c1)c1nc(-c2ccccc2)no1 (centres undefined)	-0.055	2
COc1cc(C2C(N3C(=O)c4ccc([N+](=O)[O-])cc4C3=O)C(=O)N2c2ccc(Cl)c(Cl)c2)cc(OC)c1OC (centres undefined)	-0.005	x
Cc1cc(C(=O)Nc2ccccc2)c(C)o1	-0.215	-0.1
CCC(N)C(=O)c1ccc(Cl)cc1 (centres undefined)	x	-0.45
Nc1cccc(-c2cnc3ccccc3n2)c1	-0.54	x
CN(C)S(=O)(=O)c1ccc(C(=O)NC2=N/C(=C(/C#N)C(=O)N3CCCCC3)c3ccccc32)cc1	x	0.45
CN(C)Cc1c(O)ccc2occ(C(=O)c3cccc(Br)c3)c12	-0.23	0.15
CCCCCn1nnc2c(=O)oc3ccccc3c21	-0.16	1.15
O=C(O)c1ccc(C23CC4CC(CC(C4)C2)C3)o1	-0.275	1.25
Cc1ccccc1N1OC2C(=O)N(Cc3ccccc3)C(=O)C2C1c1ccc(F)cc1 (centres undefined)	-1.45	x
CC(=O)Nc1ccc(S(=O)(=O)N(c2ccc(F)cc2F)S(=O)(=O)c2ccc(NC(C)=O)cc2)cc1	0.285	x
COc1ccc(C2C(C(=O)N3CC(C)CC(C)C3)CCC(=O)N2c2cc(OC)c(OC)c(OC)c2)cc1 (centres undefined)	0.14	0
COC(=O)c1sc(N)c(C(=O)OC)c1COC(=O)CCN=C1NS(=O)(=O)c2ccccc21	x	0.05
CCC(C)CCCNc1nnc(SCC(=O)c2nnc(-c3ccccc3)o2)s1 (centres undefined)	x	1.05
CCOc1ccccc1C1C(C#N)=C(N)SC(N)=C1C#N	-0.665	1.35
O=[N+]([O-])c1cccnc1ON=C(c1cccs1)c1cccs1	0.24	x
O=C(Nc1ccccc1)C1CC(=O)N(c2ccccc2)C1 (centres undefined)	x	-1.4
CN(c1ccc(F)cc1)S(=O)(=O)N1CCCC(C(=O)N2CCN(c3ncccn3)CC2)C1 (centres undefined)	2.06	-0.5
CSc1nc2ccccc2n1CN1CCN(S(=O)(=O)c2ccccc2C#N)CC1	x	-0.4
CCOc1ccc(S(=O)(=O)Nc2cc3c(C(=O)OC)c(C(C)(C)C)oc3c3ccccc23)cc1	0.105	x
O=c1cc(NCc2ccccc2)n(-c2ccccc2)c(=O)n1-c1ccccc1	0.375	-0.1
N#CCSc1nc(C2CC2)cc(-c2ccc(F)cc2)c1C(N)=O	0.47	1.5
CC1(C)CC(=O)C2=C(C1)NCN(CCCN1CCOCC1)C2	-1.25	-0.65
O=C(CCc1ccccc1)Nc1ccc(C(=O)OC2CCCCC2)cc1	0.2	0.25
CC(C)n1c(C(O)c2ccc(N(C)C)cc2)nc2ccccc21 (centres undefined)	x	0.2

Looked up one by one from the entries so far (two):
structure	Ba CapD inh	AID504770
CSc1nc2ccccc2n1CN1CCN(S(=O)(=O)c2ccccc2C#N)CC1	x	-0.4
CCOc1ccc(S(=O)(=O)Nc2cc3c(C(=O)OC)c(C(C)(C)C)oc3c3ccccc23)cc1	0.105	x

(further entries)
structure	Ba CapD inh	AID504770
Oc1ccc2ccccc2c1C1Nc2ccccc2-n2cccc21 (centres undefined)	14.4	0.8
NC(=NC(=O)c1cnccc1C(F)(F)F)c1ccccc1	-0.16	0.65
CCN1CCN(c2ncnc3sc(C(=O)Nc4ccccc4OC)c(C)c23)CC1	-0.92	x
O=C1C2=C(Nc3ccccc3SC2c2ccsc2)c2ccccc21 (centres undefined)	5.08	-0.65
CON/C=C(\C=Nc1ccc(Cl)cc1)c1ncc(C(F)(F)F)cc1Cl	-1.25	x
Cn1c(-c2ccc(=O)n(Cc3ccc(Cl)cc3Cl)c2)n[nH]c1=S	0.39	x
C=CCNc1nc(SC)nc2ccccc12	56.7	1.45
CCCCn1c(=O)[nH]c(=O)c2c1nc(-c1ccc(-c3ccc(Cl)cc3)o1)n2C	x	-0.4
O=C(Nc1ccc(Oc2ccc3ccccc3c2Br)c(Cl)c1)c1cc(Cl)cc(Cl)c1O	63.5	x
CCN(CC)c1ncnc2c1nnn2Cc1ccccc1	-0.65	1.4
O=C(COC(=O)c1ccc2c3c1C1C=CCC1CN3CC1CC=CC21)c1ccc(Br)cc1 (centres undefined)	-0.325	x
c1ccc2c(NC3CC3)nc(N3CCCC3)nc2c1	x	-0.75
Cn1c(=O)c2c(ncn2CCOC(=O)NC2CCN(Cc3c(F)cccc3Cl)C2)n(C)c1=O (centres undefined)	0.85	x
CCCc1c(C(=O)N(Cc2ccccc2)Cc2cccs2)cnn1-c1ccccc1	0.96	0.6
COC(=O)C1Cc2ccccc2CN1S(=O)(=O)c1ccc(F)cc1 (centres undefined)	-0.015	-0.7
Cn1nc(NC(=O)C(C)(C)C)c2c(F)cccc21	-1.14	-1.2
Cn1c(-c2sc(=S)n(-c3ccccc3)c2N)nc2ccccc21	x	-0.45
OCCN=c1scc(-c2ccc(Br)cc2)n1-c1ccccc1	-0.665	-0.65
O=C(CSc1ccccn1)c1cc(Cl)sc1Cl	-0.02	-0.3
Cc1ccc(C(CC(=O)N2CCC(C)CC2)N2Cc3ccccc3C2=O)cc1 (centres undefined)	0.265	-0.75
Clc1ccccc1OCCCN1CCNCC1	-0.52	-0.15
O=C(OCc1ccc(Br)cc1)C1CCCCN1S(=O)(=O)c1ccc(F)cc1 (centres undefined)	-0.41	0.4
CCC(=O)N/C(N)=N/c1nc2ccccc2o1	0.02	-2.25
COc1cccc(-c2nc3ccccc3c(=O)n2NC(=O)c2cc3cc(Br)ccc3oc2=O)c1	0.25	x
O=C(CNC(=O)CNC(=O)c1ccc([N+](=O)[O-])cc1)NCC(=O)NNC(=O)OCc1ccccc1	0.11	x

Arranged by formula weight (low to high): some entries from above.
structure	Ba CapD inh	AID504770
O=C(Nc1ccccc1)C1CC(=O)N(c2ccccc2)C1 (centres undefined)	x	-1.4
CSc1nc2ccccc2n1CN1CCN(S(=O)(=O)c2ccccc2C#N)CC1	x	-0.4
COc1ccc(C2C(C(=O)N3CC(C)CC(C)C3)CCC(=O)N2c2cc(OC)c(OC)c(OC)c2)cc1 (centres undefined)	0.14	0

Next results
structure	Ba CapD inh	AID504770
COc1ccc(C2SCCN2S(=O)(=O)c2cccc(C)c2)cc1OC (centres undefined)	-0.61	x
CCOc1ccc(N2C(=O)/C(=C\C3C(=O)N(c4ccccc4)N=C3C)C(=O)NC2=S)cc1 (centres undefined)	-0.81	x
O=C(NCc1cccc(C(F)(F)F)c1)c1cc2cnccc2nc1C(F)(F)F	-0.265	x
Cc1ccc2nc(SCC(=O)NC(=O)C(C)(C)C)[nH]c2c1	x	0.05
COc1ccc2c(c1)N(C)/C(=C1/SC(=S)N(C)C1=O)S2	x	-0.35
O=[N+]([O-])c1cccnc1NCc1cccs1	-0.9	x
Cc1ccc2cccc(OCC(=O)c3ccc(C)c(C)c3)c2n1	-0.315	-0.5
Cn1c(=O)c2c(ncn2Cc2nc(N)nc(N3CCCCC3)n2)n(C)c1=O	-1.13	x
CCCC1OC23CCCCC2C(C#N)(C(=N)O3)C1(C#N)C#N (centres undefined)	2.79	-1.35
Cc1ccc(CNC(=O)Nc2nnc(N3CCCC(C)C3)s2)cc1 (centres undefined)	-0.28	-1.3
O=C1CC(Cc2ccc(Cl)cc2)C(=O)N1c1ccccn1 (centres undefined)	-0.405	2.55
O=C1CC2(CCCC2)C(=O)N1c1cc(Cl)cc(Cl)c1	-0.81	2.2
CCN(CC(=O)c1ccccc1Cl)C1CCCCC1	x	-0.05
CNC(=O)c1ccc(N2CCCC2=O)cc1	x	-1.6
Cc1cccc(C)c1NC(=S)N1CCCc2cccc(C)c21	0.555	-0.9
N#Cc1c(NC(=O)c2cccs2)sc2c1CCCCC2	x	0.05
COc1cccc(C2c3c(C)nn(C)c3NC(=O)C2NC(=O)c2ccccc2)c1 (centres undefined)	x	-0.25
CCOC(=O)c1cccc(NC(=O)Cn2c(CC(=O)N3CCCC3)nc3ccccc32)c1	x	-0.25
Cc1ccc(OCC(=O)N2CCN(CC3CC4C=CC3C4)CC2)cc1 (centres undefined)	0.47	0.35
COc1cc(OC)nc(C2CCN(C(=O)CCC(=O)O)CC2)n1	-0.345	x
O=C(CCn1nc(-c2ccc(Cl)cc2)ccc1=O)N1CCC2(CC1)OCCO2	0.555	-0.4
O=C(c1cc(Cl)nc(Cl)c1)N(C1CC1)C1CCN(Cc2ccccc2)CC1	-0.905	x
O=C(Nc1ccc(Cl)cc1)NC1CCCCNC1=O (centres undefined)	0.22	-0.3
COc1ccc(C2NC(=O)c3ccccc3N2C)cc1 (centres undefined)	x	0.85
COC(=O)c1ccc(-c2sc3nc(N4CCOCC4)c4c(c3c2N)CC(C)(C)OC4)o1	0.1	x
CC(=O)Cn1c(=O)c(=O)n(C(C)C)c2ccc(C(F)(F)F)cc21	-0.325	x
CN(CCCNS(=O)(=O)c1cc(Cl)ccc1Cl)c1ccccc1	0.395	x
CC1CCCN(S(=O)(=O)c2ccc3[nH]c(=O)cc(C(=O)NC(C)CCc4ccccc4)c3c2)C1 (centres undefined)	0.395	-0.05
COc1ccc(OC)c(Nc2nc3nonc3nc2N2CCOCC2)c1	-0.44	x
CC(=O)n1nccc1-c1nccnc1C	0.075	-0.95
COc1cccc(C2=NN(C(=O)c3cccc([N+](=O)[O-])c3)C(O)(C(F)(F)F)C2)c1 (centres undefined)	0.05	x
C=CCN(CC=C)c1nc(-c2ccccc2)nc2ccccc12	-0.02	-0.35
CCCCCc1cc(C(=O)O)[nH]c1-c1ccccc1	3.06	-0.6
OCC1OC(n2nnc3ccccc32)C(O)C(O)C1O (centres undefined)	x	-0.6
Cc1ccc(C(c2c(C)[nH]n(-c3ccccc3)c2=O)c2c(C)[nH]n(-c3ccccc3)c2=O)cc1	14.3	x
C=C1N(c2cccc(C(F)(F)F)c2)C(=O)OC1(C)C	x	-0.1
CCC(=O)N1CCc2cc(Br)cc(S(=O)(=O)N3CCC(C(=O)NCCC(C)C)CC3)c21	0.205	-0.9
CC1(C)Cc2c(c(-c3ccco3)[nH]c(=O)c2C#N)CO1	1.65	-0.05
Cc1cc(C)c(NC(=O)c2nccnc2CO)c(C)c1	-0.01	0.2
Cc1sc2ncn(CC(O)CO)c(=O)c2c1C (centres undefined)	x	1.45
CCNC(=S)N1CCOCC1	-0.255	2.25
CS(=O)(=O)c1nc(-c2ccc(Br)cc2)n[nH]1	x	-0.55
CC(Sc1nc2ccccc2[nH]1)C(=O)Nc1nnc(-c2ccc(F)cc2)s1 (centres undefined)	0.61	-0.65
Cc1cccc(OC(=O)Cn2c(C(F)(F)F)nc3ccccc32)c1	-0.115	0
CC1CN(C(=O)c2ccc(COCC(F)(F)F)o2)CC(C)O1 (centres undefined)	-0.88	-1.35
O=C(c1cccs1)C1CN(Cc2ccccc2)CCC1(O)c1cccs1 (centres undefined)	x	0.6
O=C1C=C(c2ccc(Br)cc2)OC(=O)C1C(=O)c1ccc(Br)cc1 (centres undefined)	-0.505	0.55
COc1ccc(-c2nn(-c3ccccc3)cc2C2CC(c3cccs3)=NN2C(=O)CCCC(=O)O)cc1 (centres undefined)	17.9	x
Cc1cc(C(=O)COC(=O)Cc2coc3ccc4ccccc4c23)c(C)n1C1CC1	x	0.1
CC1CN(C(=O)N(C)C)CCN1C(=O)N(C)C (centres undefined)	x	-0.1

(more compounds)
structure	Ba CapD inh	AID504770
O=C(c1ccco1)c1nnn(Cc2ccccc2)c1-c1ccccc1	0.17	0.15
S=C(Cc1cccnc1)N1CCOCC1	1.1	-0.3
COc1ccc(-n2c(=S)[nH]c3cc(C(=O)N4CCC(C(N)=O)CC4)ccc3c2=O)cc1	-1.19	2.5
CCOc1ccccc1NC(=O)CSc1nnc(-c2ccco2)o1	0.05	0.4
CCOc1ccc(N(CC)S(=O)(=O)N2CCCC(C(=O)N3CCc4ccccc43)C2)cc1 (centres undefined)	0.095	-1.05
CCOC(=O)C1=C(C)N=c2s/c(=C\c3ccc(C(=O)OC)cc3)c(=O)n2C1c1ccc2c(c1)OCO2 (centres undefined)	0.195	x
COC(=O)c1c(O)ccc(-c2ccc(NC(C)=O)cc2)c1C(=O)OC	3.25	-0.5
CC(C)(C)NC(=O)CSc1nnc(-c2cccs2)o1	x	1.7
Nc1cn(-c2ccccc2)nc1-c1ccccc1	x	1.2

Compound profiles, as listed above. Order of values: Ba CapD inh | AID504770
S=C(Cc1cccnc1)N1CCOCC1 is entered as 1.1 | -0.3
CCOc1ccccc1NC(=O)CSc1nnc(-c2ccco2)o1 is entered as 0.05 | 0.4
COc1ccc(-n2c(=S)[nH]c3cc(C(=O)N4CCC(C(N)=O)CC4)ccc3c2=O)cc1 is entered as -1.19 | 2.5
